CSC inhib: cancer stem cell inhibition; cancer stem cell-like cells viability, luminescence; inhibition, % at 7.5 µM; actives 1.1% (n = 300,000);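 active = mean at 75% or more and at least half the replicates too; inconclusive = mean and replicates disagree; tested in HMLE shEcad cells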;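 note: 0% = median of negative and 100% = median of positive control wells; the first replicate is given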
Rce1 inh: inhibitors of yeast Ras-converting enzyme. yeast membranes, quenched prenylated peptide cleavage fluorescence. calls only. actives 0.27% (n = 290,000). Q03530;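 active = fall in fluorescence gain of 50% or more versus controls, with final raw signal at or below 3038400; inconclusive = same 50% fall but final raw signal above 3038400; inactive = fall in fluorescence gain under 50%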;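 note: plate controls were neutral control wells for no effect and wells lacking membranes for full effect; tested at 10 µM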
Target sequence (Q03530 whole entry, looked up): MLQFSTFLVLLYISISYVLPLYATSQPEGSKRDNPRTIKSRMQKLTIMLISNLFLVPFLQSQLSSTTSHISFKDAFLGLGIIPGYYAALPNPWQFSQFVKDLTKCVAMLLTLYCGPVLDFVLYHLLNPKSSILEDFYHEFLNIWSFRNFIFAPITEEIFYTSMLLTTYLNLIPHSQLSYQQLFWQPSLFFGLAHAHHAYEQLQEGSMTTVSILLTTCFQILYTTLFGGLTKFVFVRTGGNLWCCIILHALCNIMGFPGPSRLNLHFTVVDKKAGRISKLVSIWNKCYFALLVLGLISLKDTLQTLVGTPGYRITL
HIV Env fusion: blocks HIV Env-driven cell-cell fusion; actives 1.1% (n = 360,000); inhibition, % at 12.3 µM; HeLa-JRFL Env/CEM21 cell fusion, luciferase;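 active = mean replicate inhibition score of at least 50 and every replicate individually at or above 50; inconclusive = only one of the two criteria met; inactive = mean below 50 and not all replicates reaching 50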;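 note: 0% = plate neutral controls and 100% = maraviroc near 300 nM; one replicate is shown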
UUG fidelity: modulators of start codon recognition fidelity in yeast | AID 602363 | activity score, % at 18.7 µM | actives 0.13% (n = 350,000) | S. cerevisiae UUG-firefly luciferase reporter, luminescence/redox ratio;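 active = replicate mean at a twofold rise or more, about +100% in these data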;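 note: firefly luciferase made from a UUG start codon reports start codon fidelity; reporter light over untreated wells divided by growth signal over untreated wells; some hits fall short of that in this replicate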
An asterisk follows results filed as active; [ ] = another dose, or the depositor's remark.

Results for C[C@@H]1CN([C@@H](C)CO)C(=O)Cc2cc(NC(=O)CCCN(C)C)ccc2O[C@H]1CN(C)S(=O)(=O)c1ccc(Cl)cc1 ?
UUG fidelity: 33.6

What do the screens show for `O=S(=O)(c1ccccc1)N1CCCCN2[C@@H](CO)[C@H](c3ccc(C#Cc4ccccc4)cc3)[C@@H]2C1`?
UUG fidelity: 22.3

Results for CO[C@@H]1CN(C)C(=O)c2ccc(NC(=O)C3CC3)cc2OC[C@H](C)N(Cc2cccnc2)C[C@H]1C ?
UUG fidelity: 23.8

What do the screens show for `C[C@H](CO)N1C[C@H](C)[C@H](CN(C)S(=O)(=O)c2ccc(Cl)cc2)Oc2c(NC(=O)NC3CCCCC3)cccc2C1=O`?
UUG fidelity: -10.3

What do the screens show for `CCC(=O)N1CC[C@@H]2[C@H](CO)Nc3ccc(C#Cc4ccc(F)cc4)cc3[C@@H]21`?
UUG fidelity: -6.1

Results for CO[C@@H]1CN(C)C(=O)c2cc(NS(C)(=O)=O)ccc2OC[C@H](C)N(C(=O)c2ccc3c(c2)OCO3)C[C@H]1C ?
UUG fidelity: -15.4

What do the screens show for `Cc1ccc(-c2ccc([C@H]3[C@@H](CO)N4CCCCN(Cc5ccccn5)C[C@H]34)cc2)cc1`?
UUG fidelity: -33.9

What do the screens show for `CO[C@H]1CN(C)C(=O)c2ccc(NC(=O)C3CC3)cc2OC[C@H](C)N(Cc2nccs2)C[C@@H]1C`?
UUG fidelity: -12.1

Results for O=C(CC(F)(F)F)N1C[C@H]2[C@@H](c3ccccc31)[C@H](CO)N2C(=O)c1ccncc1 ?
UUG fidelity: 13.2

Results for CCOC(=O)N(C)C[C@@H]1OCc2cnnn2CCCC(=O)N([C@@H](C)CO)C[C@H]1C ?
UUG fidelity: -4.8

Arranged by molar mass (ascending): part of the list above.
What do the screens show for `CCC(=O)N1CC[C@@H]2[C@H](CO)Nc3ccc(C#Cc4ccc(F)cc4)cc3[C@@H]21`?
UUG fidelity: -6.1

What do the screens show for `Cc1ccc(-c2ccc([C@H]3[C@@H](CO)N4CCCCN(Cc5ccccn5)C[C@H]34)cc2)cc1`?
UUG fidelity: -33.9

Results for CO[C@@H]1CN(C)C(=O)c2cc(NS(C)(=O)=O)ccc2OC[C@H](C)N(C(=O)c2ccc3c(c2)OCO3)C[C@H]1C ?
UUG fidelity: -15.4

(continued)
Results for CN1C[C@@H]2[C@H](c3ccccc31)[C@@H](CO)N2Cc1ccccc1 ?
UUG fidelity: 0.2

How did CCCNC(=O)C[C@@H]1CC[C@@H]2[C@H](COc3ccc(NC(=O)c4ccc(C(F)(F)F)cc4)cc3C(=O)N2C)O1 do in these assays?
UUG fidelity: 5.3

Results for COc1ccc(C(=O)Nc2ccc3c(c2)C(=O)N(C)C[C@@H](OC)[C@H](C)CN(C(C)=O)[C@H](C)CO3)cc1 ?
UUG fidelity: 25.1

How did N#Cc1cccc(-c2ccc([C@H]3[C@H](CO)N4CCCCN(S(=O)(=O)c5ccccc5)C[C@@H]34)cc2)c1 do in these assays?
UUG fidelity: -8.6

What do the screens show for `C[C@H]1CN([C@@H](C)CO)C(=O)Cc2cc(NC(=O)c3ccncc3)ccc2O[C@H]1CN(C)C(=O)Nc1ccccc1`?
UUG fidelity: -3.9

Results for O=S(=O)(c1ccccc1)N1CCCCN2[C@H](C1)[C@H](c1ccc(-c3ccccc3F)cc1)[C@@H]2CO ?
UUG fidelity: 7.2

How did O=S(=O)(c1ccccc1F)N1CC[C@@H]2[C@H]1c1cc(-c3cccc(F)c3)ccc1N[C@@H]2CO do in these assays?
UUG fidelity: -11.5

What do the screens show for `CN(C)CC(=O)NC[C@H]1N[C@@H](CO)[C@H]1c1ccc(-c2cccc(C#N)c2)cc1`?
UUG fidelity: 3.2

What do the screens show for `O=C(C1CCOCC1)N1C[C@@H]2[C@H](c3ccccc31)[C@H](CO)N2C(=O)Cc1ccccn1`?
UUG fidelity: -9.7

How did COc1ccccc1C#Cc1ccc2c(c1)[C@@H]1[C@@H](CCN1C(C)=O)[C@@H](CO)N2C do in these assays?
UUG fidelity: -0.6

Results for CO[C@@H]1CN(C)C(=O)c2cc(NC(=O)c3cccc(F)c3)ccc2OC[C@@H](C)NC[C@@H]1C ?
UUG fidelity: -10.8

How did COc1ccc(NC(=O)N2C[C@@H](O)COC[C@H]3O[C@@H](CC(=O)N4CCN(C)CC4)CC[C@@H]32)cc1 do in these assays?
UUG fidelity: -2.5

How did CO[C@@H]1CN(C)C(=O)c2cc(NC(=O)c3cc(C)on3)ccc2OC[C@H](C)N(C(=O)C2CC2)C[C@H]1C do in these assays?
UUG fidelity: -2.1

How did C[C@@H]1CN([C@H](C)CO)C(=O)Cc2cc(N(C)C)ccc2O[C@@H]1CN(C)Cc1ccc(-c2ccccc2)cc1 do in these assays?
UUG fidelity: 5.9

What do the screens show for `COc1ccc(CN(C)C[C@@H]2Oc3c(NS(=O)(=O)c4ccc(F)cc4)cccc3C(=O)N([C@@H](C)CO)C[C@H]2C)cc1`?
UUG fidelity: -4.4

What do the screens show for `O=C(C[C@@H]1C[C@H]2c3cc(NS(=O)(=O)c4ccccc4)ccc3O[C@H]2[C@@H](CO)O1)NC1CCCC1`?
UUG fidelity: 0.8

Results for O=C(C[C@@H]1CC[C@@H]2[C@H](COC[C@H](O)CN2C(=O)Nc2cc(Cl)cc(Cl)c2)O1)N1CCCCC1 ?
UUG fidelity: 4.6

How did O=C(C[C@@H]1CC[C@H]2[C@@H](COC[C@H](O)CN2S(=O)(=O)c2ccc(Cl)cc2)O1)NCc1ccc(Cl)c(Cl)c1 do in these assays?
UUG fidelity: 1.3

What do the screens show for `N#Cc1cccc(-c2ccc3c(c2)[C@@H]2[C@@H](CCN2Cc2cncnc2)[C@@H](CO)N3)c1`?
UUG fidelity: -11.7

How did Cc1ccccc1-c1ccc([C@H]2[C@H](CO)N3CCCCN(S(=O)(=O)c4cn(C)cn4)C[C@@H]23)cc1 do in these assays?
UUG fidelity: -2.8

How did CO[C@@H]1CN(C)C(=O)c2cc(NC(=O)C3CCCC3)ccc2OC[C@H](C)NC[C@@H]1C do in these assays?
UUG fidelity: -2.9

How did Cc1noc(C)c1NC(=O)Nc1cccc2c1O[C@@H](CN(C)Cc1ccc(C(=O)O)cc1)[C@@H](C)CN([C@H](C)CO)C2=O do in these assays?
UUG fidelity: -17.5

How did COc1ccc(NC(=O)N2CCCCN3[C@H](C2)[C@@H](c2ccc(C#CCC(C)C)cc2)[C@@H]3CO)cc1 do in these assays?
UUG fidelity: 28.4

What do the screens show for `COc1ccc(-c2ccc3c(c2)[C@H]2[C@H](CCN2S(=O)(=O)c2ccccc2F)[C@H](CO)N3C)cc1`?
UUG fidelity: 1.9

How did CN1CCN(C(=O)C[C@@H]2CC[C@@H]3[C@H](COC[C@@H](O)CN3Cc3ccc(Oc4ccccc4)cc3)O2)CC1 do in these assays?
UUG fidelity: -1.8

How did C[C@@H]1CN([C@@H](C)CO)C(=O)Cc2cc(NC(=O)Nc3cccc4ccccc34)ccc2O[C@@H]1CN(C)Cc1ccc2c(c1)OCO2 do in these assays?
UUG fidelity: 10.6

What do the screens show for `C/C=C/c1ccc([C@H]2[C@H]3CN(S(=O)(=O)c4cccc(C)c4)CCCCN3[C@H]2CO)cc1`?
UUG fidelity: 4.5

How did C[C@H](CO)N1C[C@H](C)[C@H](CN(C)C(=O)Nc2ccc3c(c2)OCO3)Oc2ccc(NS(=O)(=O)c3cn(C)cn3)cc2C1=O do in these assays?
UUG fidelity: 1.5

How did CCCNC(=O)N1C[C@H]2[C@@H](c3ccccc31)[C@H](CO)N2CC1CCCC1 do in these assays?
UUG fidelity: -10.2

Results for COc1ccc(S(=O)(=O)N2CCOC23CCN(S(=O)(=O)c2ccc(F)cc2C)CC3)cc1 ?
Rce1 inh: inactive; UUG fidelity: 1.1

Results for O=C(COc1ccc2ccc(=O)oc2c1)NC1CCCCC1 ?
CSC inhib: -7.7; UUG fidelity: -2.6

What do the screens show for `CCN(C(=O)c1cccc(S(=O)(=O)N2CCc3ccccc32)c1)C1CCS(=O)(=O)C1` (stereo unspecified)?
CSC inhib: -8.0; UUG fidelity: -6.9

What do the screens show for `CNC[C@@H]1Oc2ccc(NC(=O)Nc3cccc4ccccc34)cc2C(=O)N([C@@H](C)CO)C[C@@H]1C`?
CSC inhib: 1.4; UUG fidelity: -9.3

What do the screens show for `CC(C)Cn1c(SC(C)C(=O)NC2CC2)nnc1-c1ccccc1F` (stereo unspecified)?
CSC inhib: -22.5; UUG fidelity: -10.5

Results for Cc1ccc(C(=O)CCC(=O)Nc2ncccc2C)cc1 ?
CSC inhib: -2.5; UUG fidelity: -12.9

How did O=C(Cc1ccc(S(=O)(=O)N2CCOCC2)s1)Nc1cc(C(F)(F)F)cc(C(F)(F)F)c1 do in these assays?
CSC inhib: 68.9; UUG fidelity: -11.4

How did O=C(Nc1cc(S(=O)(=O)Nc2ccc(Cl)cc2)ccc1O)c1ccc(F)cc1F do in these assays?
CSC inhib: 18.9; UUG fidelity: -0.1

What do the screens show for `O=C(CSc1nnc(Cc2cccs2)n1C1CC1)NC1CCS(=O)(=O)C1` (stereo unspecified)?
CSC inhib: -6.9; UUG fidelity: -16.1

Results for C[C@H](CO)N1C[C@H](C)[C@@H](CN(C)C)Oc2ccc(NS(=O)(=O)c3ccccc3)cc2C1=O ?
HIV Env fusion: -8.1[16.7 µM]

What do the screens show for `C[C@@H]1ON(C)[C@H]2C[C@H]3c4[nH]c5c(-c6cccc(F)c6)cccc5c4CCN3C(=O)[C@@H]12`?
HIV Env fusion: -5.9

How did C[C@H]1CN([C@@H](C)CO)C(=O)Cc2cc(NS(=O)(=O)c3cn(C)cn3)ccc2O[C@H]1CN(C)CC1CCCCC1 do in these assays?
HIV Env fusion: 11.9[16.7 µM]

Results for C[C@@H]1CCCCO[C@@H](CN(C)Cc2ccncc2)[C@@H](C)CN([C@@H](C)CO)C(=O)c2cc(NC(=O)c3ccncc3)ccc2O1 ?
HIV Env fusion: -23.3[16.7 µM]

What do the screens show for `C=CCCC1CN(Cc2ccc(OC)cc2)S(=O)(=O)c2c(NCc3cc(OC)c(OC)c(OC)c3)cccc2O1` (stereo unspecified)?
HIV Env fusion: -3.4

What do the screens show for `COc1ccc(NC(=O)Nc2cccc3c2O[C@H](CN(C)Cc2ccc4c(c2)OCO4)[C@H](C)CN([C@@H](C)CO)C3=O)cc1`?
HIV Env fusion: -43.2[16.7 µM]

Results for C[C@@H]1CN([C@@H](C)CO)C(=O)c2cccc(NC(=O)Nc3ccccc3)c2O[C@@H]1CN(C)S(=O)(=O)c1cccs1 ?
HIV Env fusion: -34.0[16.7 µM]

What do the screens show for `COC(=O)C[C@H]1CC[C@@H]2[C@H](COc3ccc(NS(=O)(=O)c4ccc(F)cc4)cc3C(=O)N2C)O1`?
HIV Env fusion: -0.6[16.7 µM]

Results for COc1ccccc1CNC(=O)C[C@H]1C[C@H]2c3cc(NC(=O)Cc4ccncc4)ccc3O[C@H]2[C@H](CO)O1 ?
HIV Env fusion: -15.4[16.7 µM]

Results for COc1cccc(CNC(=O)C[C@H]2CC[C@@H](NC(C)=O)[C@@H](CO)O2)c1 ?
HIV Env fusion: -0.2[16.7 µM]

Results for C[C@H](CO)N1C[C@H](C)[C@H](CN(C)Cc2ccc(Oc3ccccc3)cc2)Oc2ccc(NC(=O)CCCN(C)C)cc2C1=O ?
HIV Env fusion: 8.0[16.7 µM]

What do the screens show for `CC(=O)C1=C(C)N(Cc2ccc(Br)cc2)C(=S)NC1c1ccc(F)cc1` (stereo unspecified)?
HIV Env fusion: inconclusive

Results for C[C@H]1CN([C@@H](C)CO)C(=O)Cc2cc(NS(=O)(=O)c3cccs3)ccc2O[C@@H]1CN(C)S(=O)(=O)c1cccs1 ?
HIV Env fusion: 12.3[16.7 µM]

What do the screens show for `C[C@H]1CN([C@@H](C)CO)S(=O)(=O)c2ccc(/C=C/c3ccccc3)cc2O[C@H]1CN(C)C(=O)CN1CCOCC1`?
HIV Env fusion: 1.4[16.7 µM]

How did CO[C@H]1CN(C)C(=O)c2cc(NC(=O)c3cc(C)on3)ccc2OC[C@@H](C)N(CC2CC2)C[C@H]1C do in these assays?
HIV Env fusion: 2.8[16.7 µM]

What do the screens show for `CCC(=O)N(C)C[C@@H]1Oc2cc(C3=CCCCC3)ccc2S(=O)(=O)N([C@H](C)CO)C[C@H]1C`?
HIV Env fusion: -4.5[16.7 µM]

How did O=C(C[C@H]1CC[C@@H](NC(=O)CN2CCOCC2)[C@H](CO)O1)NCc1cccc(F)c1 do in these assays?
HIV Env fusion: 12.3[16.7 µM]

What do the screens show for `COc1cccc(-c2ccc3n(c2=O)C[C@H]2[C@H](CO)[C@@H](C(=O)NC4Cc5ccccc5C4)N[C@@H]32)c1`?
HIV Env fusion: -1.7[16.7 µM]

What do the screens show for `CS(=O)(=O)Nc1ccc2c(c1)[C@H]1C[C@@H](CC(=O)NCc3ccc(Cl)cc3)O[C@H](CO)[C@H]1O2`?
HIV Env fusion: -2.4[16.7 µM]

What do the screens show for `COCC(=O)N1C[C@H](C)[C@H](OC)CN(C)C(=O)c2cc(NC(=O)C3CCC3)ccc2OC[C@@H]1C`?
HIV Env fusion: -12.4[16.7 µM]

What do the screens show for `COc1cccc(C=C2SC(=S)N(Cc3ccco3)C2=O)c1OC`?
HIV Env fusion: inconclusive

Bioassay records (PubChem BioAssay)

A portion of the library. The share of hits here may be higher or lower than overall.
